Source: PubChem BioAssay (Johns Hopkins Ion Channel Center)
KCNQ2 enhance: enhances the rat KCNQ2 potassium channel | B-score at 10 µM | 0.54% of 310,000 active | CHO-K1 KCNQ2, FluxOR thallium flux fluorescence; hits give high values | AID 2239 | O88943;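 active = fluorescence ratio B-score at least 3 SD of library B-scores, with initial fluorescence B-score within 3 SD, cut at about 5.3 in these data; same plate scores as AID 2156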;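 also: B-score of peak minus minimum over baseline fluorescence ratio after K+ and Tl+ stimulus; positive B-score means potentiation of KCNQ2 with more thallium influx and brighter signal; only the inactives scoring about 0 or higher are listed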
Target sequence (O88943 whole entry, looked up): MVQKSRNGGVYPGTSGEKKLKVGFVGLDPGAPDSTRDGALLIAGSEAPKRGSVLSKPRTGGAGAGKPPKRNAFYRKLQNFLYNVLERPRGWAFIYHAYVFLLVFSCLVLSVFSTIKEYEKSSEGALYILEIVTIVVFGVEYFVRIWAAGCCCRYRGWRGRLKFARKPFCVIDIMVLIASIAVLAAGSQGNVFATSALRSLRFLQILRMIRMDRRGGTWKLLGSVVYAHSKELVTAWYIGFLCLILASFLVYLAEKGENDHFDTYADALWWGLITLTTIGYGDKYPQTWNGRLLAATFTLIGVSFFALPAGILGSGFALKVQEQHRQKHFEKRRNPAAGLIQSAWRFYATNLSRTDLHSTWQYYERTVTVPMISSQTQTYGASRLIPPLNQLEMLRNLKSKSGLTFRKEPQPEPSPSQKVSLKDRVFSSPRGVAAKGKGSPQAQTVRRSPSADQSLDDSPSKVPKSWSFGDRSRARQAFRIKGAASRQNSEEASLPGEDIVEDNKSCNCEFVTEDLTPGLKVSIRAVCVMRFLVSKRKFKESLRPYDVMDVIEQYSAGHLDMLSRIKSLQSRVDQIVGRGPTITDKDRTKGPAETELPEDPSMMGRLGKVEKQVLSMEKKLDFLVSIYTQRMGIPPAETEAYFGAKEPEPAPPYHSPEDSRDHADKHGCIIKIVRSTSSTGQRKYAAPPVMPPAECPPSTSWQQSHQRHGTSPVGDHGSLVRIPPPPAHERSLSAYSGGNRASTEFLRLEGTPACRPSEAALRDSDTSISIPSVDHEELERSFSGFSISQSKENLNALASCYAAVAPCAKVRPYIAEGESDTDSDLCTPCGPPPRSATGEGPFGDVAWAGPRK
KCNQ2 enhance baseline: second read-out of KCNQ2 enhance, no call of its own (marks repeat the call); B-score; compound at 10 µM; measured here: initial fluorescence intensity artifact check;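 brightness before thallium and not channel activity; 0 = typical well and far values either way flag optical interference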
* hit, by the source's call. The list is partial; rates above refer to the full screens.

Below each compound: KCNQ2 enhance	KCNQ2 enhance baseline
- O=C(Oc1cccc(Cl)c1)N1CCOCC1
    0.04	-0.73
- Cc1csc(=O)n1CCC(=O)OCC(=O)Nc1ccc(Cl)cn1
    0.4	-0.17
- CCOC(=O)Cc1csc(NC(=S)NC(=O)c2cc(OC)c(OC)c(OC)c2)n1
    2.1	-0.43
- CCCOc1ccc(Br)cc1CSC(=N)N
    0.84	1.5
- COc1cccc2sc(Nc3nc4ccc(NC(C)=O)cc4s3)nc12
    0.42	2.2
- CC(=O)Oc1ccc(/C=C2\N=C(C3CCCCC3)OC2=O)cc1
    0.96	-1
- CCNC(=O)CC1C(=O)N(c2ccc(OC)cc2)C(=O)N1Cc1ccc(OC)cc1 (stereo not given)
    1.5	-0.18
- CC(=O)Nc1cccc(NC(=O)Nc2ccc(F)cc2F)c1
    1	0.26
- O=C(c1ccco1)c1coc2c1cc(O)c1ccccc12
    0.78	0.14
- CC1C(=O)N2CCCc3cc(NC(=O)C4CC4)cc1c32 (stereo not given)
    0.64	1.6
- CCOc1ccc(C2CC(=O)NC2=O)cc1 (stereo not given)
    0.66	-1.3
- CC(C)N1C(=O)S/C(=C/c2ccccc2OCc2ccc(C(=O)O)cc2)C1=O
    1	-0.86
- CNC(=S)NNC(=O)c1oc2nc(-c3ccccc3)cc(-c3ccco3)c2c1N
    0.27	0.68
- Cc1sc2nc(CSc3ccccc3)nc(N3CCC(C(N)=O)CC3)c2c1C
    1.4	0.52
- COCCN(Cc1ccccc1)C(=O)c1cccc(S(=O)(=O)N2CCN(c3ccc(F)cc3)CC2)c1
    0.33	-0.42
- COc1cccc(/C=C/C(=O)NCc2cn3cc(Cl)ccc3n2)c1
    1.4	-0.01
- CCN1C(=O)C(CC(=O)NC2CCCCC2)N(CC)C1=O (stereo not given)
    2.1	-1.6
- S=C(NCC1CCCO1)Nc1cccc(Cl)c1 (stereo not given)
    1.6	-2.6
- COc1ccc(NC(=O)C2c3cc(OC)c(OC)cc3C(=O)N(C)C2c2cccnc2)cc1OC (stereo not given)
    0.04	1
- O=C(O)CCC(=O)NNc1ncnc2ccccc12
    0.22	-1.1
- COc1cc(C(c2c(C)[nH][nH]c2=O)c2c(C)[nH][nH]c2=O)ccc1OC(C)C
    0.57	0.27
- COc1ccc(OC)c(-c2nnc(SCC(=O)N3CCOCC3)o2)c1
    0.99	-1.2
- CN1N=C(C(C)(C)C)CSC1=Nc1ccccc1
    0.08	-1.3
- CC(N=C1CC(C)(C)CC(=O)/C1=C(/O)CCCN1C(=O)c2ccccc2C1=O)C(=O)O (stereo not given)
    0.02	0.61
- O=C1CCC(=O)N1CNc1cccnc1
    0.41	2.5
- Cc1csc(NC(=O)Nc2ccc(Cl)cc2)n1
    0.87	-0.02
- COc1ccc(Cc2nnc(NC(=O)c3ccccc3F)s2)cc1
    1.9	-0.93
- CN1CCN(C(=O)c2ccccc2NC(=O)COc2ccccc2Cl)CC1
    0.3	-0.95
- Cc1c(C(=O)O)cccc1-n1c(C)cc(/C=N/NC(=O)c2cc3ccccc3o2)c1C
    0.4	0.66
- CNc1nc(-c2ccccc2)nc(-c2ccc(OC)cc2)c1C#N
    0.54	1.9

Whole records, quoted from the list. Values in the order: KCNQ2 enhance	KCNQ2 enhance baseline
COc1ccc(OC)c(-c2nnc(SCC(=O)N3CCOCC3)o2)c1 reads 0.99	-1.2
CN1N=C(C(C)(C)C)CSC1=Nc1ccccc1 reads 0.08	-1.3
Cc1csc(NC(=O)Nc2ccc(Cl)cc2)n1 reads 0.87	-0.02
CC(N=C1CC(C)(C)CC(=O)/C1=C(/O)CCCN1C(=O)c2ccccc2C1=O)C(=O)O (stereo not given) reads 0.02	0.61
COc1ccc(Cc2nnc(NC(=O)c3ccccc3F)s2)cc1 reads 1.9	-0.93

Remaining list, next part.
Below each compound: KCNQ2 enhance	KCNQ2 enhance baseline
- COc1ccc(-c2ccc3c(N)c(C(=O)c4ccc(OC)c(OC)c4)sc3n2)cc1
    0.06	0.68
- O=C1c2ccccc2C(=O)C1c1ccnc2ccccc12
    1.8	-0.01
- COc1cc(OC)cc(C(=O)NCc2ccc3c(c2)OCO3)c1
    0.06	1.5
- CC(OC(=O)CCCc1nc2ccccc2s1)C(=O)NC(N)=O (stereo not given)
    0.51	0.68
- O=C(NCc1cccc(C(F)(F)F)c1)c1cc(Cl)cc(Cl)c1
    1.3	-0.01
- CCOC(=O)C1C(=O)C(C(=O)OCC)C(c2cccnc2)NC1c1cccnc1 (stereo not given)
    0.68	0.2
- O=C(Cn1cc(C(F)(F)F)ccc1=O)Nc1ccccc1
    0.25	0.26
- COc1cc(NC(=O)CCS(=O)(=O)c2ccc3nc(C)sc3c2)cc(OC)c1OC
    1.8	0.04
- COc1ccc(-n2nnc3c(=O)n(CC(=O)OCc4ccccc4)cnc32)cc1
    0.26	-0.04
- CC(C)(C)C(=O)Nc1ccc2c(c1)OCCOCCOc1cc(NC(=O)C(C)(C)C)ccc1OCCOCCO2
    0.02	0.74
- COc1ccc(C2=CSC3=NCCN23)cc1Cl
    1.4	0.63
- NS(=O)(=O)c1ccc(N2CCN(CCOc3ccc(Cl)cc3)CC2)nc1
    1.8	-0.59
- Cc1ccccc1S(=O)(=O)NCC1CCCO1 (stereo not given)
    0.87	0.7
- CCOP(=O)(c1ccccc1)C1(C#N)CCCC1 (stereo not given)
    1.6	-0.13
- COc1ccc(CCNC(=O)C2CC3Cn4c(nc5ccccc54)C3N2c2ccccc2)cc1 (stereo not given)
    0.12	0.77
- CCCCN(C)CCC(=O)Nc1ccc(Cl)cc1
    1.2	-1.4
- CCOCCOC(=O)CCSc1n[nH]c(=O)[nH]c1=O
    0.1	-0.94
- Cc1cccc2cc(C#N)c(NCCNS(=O)(=O)c3ccccc3)nc12
    0.08	-0.43
- COc1ccc2[nH]c3c(c2c1)CCN1C(=O)N([C@@H](C)C(=O)NC2CC2)C(=O)[C@]31C
    0.79	1.2
- CC(=O)n1cc(/C=C2/N=C(c3ccccc3)OC2=O)c2ccccc21
    1.3	1.4
- Nc1ccc(C(=O)N/N=C/c2cn(Cc3cccc(F)c3)c3ccccc23)cc1
    0.1	-1.6
- COc1ccc(/C=C2\CCn3c2nc2cc(C(=O)O)ccc2c3=O)cc1
    0.71	-0.03
- COc1ccc([C@@H]2Sc3ccccc3N(CCN(C)C)C(=O)[C@@H]2OC(C)=O)cc1
    1.1	0.63
- CC1(C)Oc2ccc3ccc(=O)oc3c2C(/C=N/O)C1=O (stereo not given)
    0.57	1.1
- CCOC(=O)CCn1c(=S)n(CCC(=O)OCC)c2ccccc21
    0.52	-1.1
- O=C(OCc1nc2ccccc2s1)c1ccco1
    1.3	-0.51
- Cn1cnnc1-c1cccc(NS(=O)(=O)c2ccc(N3CCCC3=O)cc2)c1
    0.41	0.08
- Cc1cc(/C(N)=N/OC(=O)Nc2cccc(C(F)(F)F)c2)no1
    0.33	-1.4
- COc1ccc(CN2CCSCC2)c(OC)c1C
    2.1	0.05
- CCOC(=O)N1CCN(C(=O)CNC(=O)Cc2ccc(Cl)cc2)CC1
    0.43	-0.3

Entries from the list above that have a tert-butyl group, in the order listed:
Below each compound: KCNQ2 enhance	KCNQ2 enhance baseline
- CN1N=C(C(C)(C)C)CSC1=Nc1ccccc1
    0.08	-1.3
- CC(C)(C)C(=O)Nc1ccc2c(c1)OCCOCCOc1cc(NC(=O)C(C)(C)C)ccc1OCCOCCO2
    0.02	0.74

Next part.
Below each compound: KCNQ2 enhance	KCNQ2 enhance baseline
- Cn1c(NC(=O)c2cccnc2)nc2ccccc21
    3.1	-0.04
- Cc1ccc(NC(=O)CSc2nnc(C)n2-c2ccccc2)cc1
    1	-0.46
- CCOC(=O)c1cccc(NC(=O)C2CCCN(S(=O)(=O)c3c(C)n[nH]c3C)C2)c1 (stereo not given)
    0.67	-1.1
- CCCN1CCN(c2nc(-c3cccs3)nc3ccccc23)CC1
    0.77	-0.72
- COc1ccc(C2(C(=O)N3CCOCC3)CCOCC2)cc1OC
    0.16	3.2
- CC(C)c1nnc(NC(=O)c2ccc(N3C(=O)CCC3=O)cc2)s1
    0.39	0.1
- COc1cc(C(=O)NCCC2=CCCCC2)cc(OC)c1OC
    0.67	-0.55
- CCN(CC)Cc1cc(O)c(CN(CC)CC)cc1O
    2.7	-0.1
- COc1cc(S(=O)(=O)Nc2ccc(C(=O)NCC(=O)O)cc2)ccc1NC(C)=O
    0.73	-0.25
- CCOC(=O)NC(Nc1nnc(C)s1)(C(=O)OCC)C(F)(F)F (stereo not given)
    0.03	-0.29
- CCn1c(SCC(=O)Nc2nc(C)cs2)nnc1-c1cccnc1
    0.04	0.2
- OC(CNCc1ccccc1)COCc1ccc(Cl)cc1 (stereo not given)
    0.22	2
- Cc1cnc(CNC(=O)c2ccc3oc(Cc4ccc(Cl)cc4)nc3c2)cn1
    2.1	-1.4
- COc1cc(Nc2ccccn2)cc(C(=O)Nc2cccc(C(F)(F)F)c2)c1
    0.14	-1
- CCOc1ccc(N(CC(=O)NC2CCCCC2)C(=O)CCCC(=O)Nc2ccccn2)cc1
    0.43	-0.73
- Cc1cc(C)n2nc(C(=O)NCCc3ccccc3)nc2n1
    3	-0.95
- Cc1cccc(OCc2nc(-c3cccnc3)no2)c1
    0.02	1.4
- COc1ccc(-c2cc(C(F)(F)F)nc(SCCC(=O)N3CCCC3)n2)cc1
    0.49	-0.62
- CCCSc1nsc(SCCC)c1C(N)=O
    1.4	-0.83
- Cc1ccccc1N(Cc1cc(=O)[nH]c2ccccc12)C(=O)CCl
    0.43	0.68
- CCC(=O)N(NC1=NS(=O)(=O)c2ccccc21)S(=O)(=O)c1ccc(C)cc1
    0.71	-0.53
- COc1ccc(Nc2nc(N)nc(CSC(=S)N3CCOCC3)n2)cc1
    0.29	0.84
- CCNC(=S)NS(=O)(=O)c1ccc(CC)cc1
    1.7	-1.3
- C/C(=N\OC(=O)c1c(-c2ccccc2Cl)noc1C)c1nccs1
    0.13	2.2
- CC(C)(C)NC(=O)NC(=O)C[n+]1ccc(Cc2ccc([N+](=O)[O-])cc2)cc1
    1.1	0.39
- O=C(NCCNC(=O)c1ccc(Cl)cc1Cl)c1cnccn1
    0.69	0.01
- Nc1nc(SCC(=O)Nc2ccccc2)[nH]c(=O)c1-c1ccccc1
    0.79	-1.7
- COc1ccc(-c2csc3nc(C(C)(C)C)oc(=O)c23)cc1OC
    0.58	-0.63
- COc1ccc(S(=O)(=O)Nc2cccc(/C=C/C(=O)O)c2)cc1
    0.44	0.38
- COc1cccc(-c2nc(-c3ccccn3)no2)c1
    0.02	-0.86
- CC(NC(=O)c1ccc(S(=O)(=O)C(F)F)cc1)c1ccccc1 (stereo not given)
    1.9	2.8
- CCOC(=O)C1CCCCN1C(=O)CCc1nnc(-c2ccc3c(c2)OCO3)o1 (stereo not given)
    0.32	2.8
- CCN(CC)S(=O)(=O)c1cc(C(=O)Nc2cccnc2)ccc1Cl
    0.37	-2.1
- O=c1c(NCCc2ccc(Cl)cc2)c(-c2ccccc2)c1=O
    0.69	-0.94
- O=C(O)c1cccc(N2C(=O)c3cccnc3C2=O)c1
    1.1	-0.3
- COc1ccc(CCNC(=O)CSc2nnc(Cc3csc(N)n3)n2C)cc1OC
    0.02	-0.77
- O=c1ccc(Cc2ccccn2)n[nH]1
    0.92	-2.4
- CCC(C)(C)n1nnnc1CN1CCC(NC(=O)c2ccccc2C)CC1
    1.8	1
- O=C(O)Cn1nc2ccccc2n1
    0.44	-0.47
- COC(=O)C1=C(C)NC(C)=C(C(=O)OC)C1c1ccccn1
    0.33	-0.55
- COC(=O)C(CC(=O)O)NCc1ccco1 (stereo not given)
    0.89	-0.88
- COc1ccc2c(=O)cc(-c3ccccc3F)oc2c1
    0.02	0.86
- CCC(=O)Nc1cc(C(F)(F)F)ccc1N1CCCC1
    2.2	-1.3
- COc1ccc(-n2cc(-c3ccccc3)c3c(=O)[nH]cnc32)cc1
    1.4	-2
- CCCNC(=S)N1CCC(NC(=O)c2cccc(C)c2)CC1
    0.78	-0.11
- CCOc1ccc(OCC(O)CNC2CCN(Cc3ccccc3)CC2)cc1 (stereo not given)
    0.8	0.48
- CC1(C)CC(=O)C/C(=N\NC(=S)NCc2ccccc2)C1
    0.51	0.08
- O=C(COC(=O)Cc1ccsc1)Nc1ccc(Cl)c(S(=O)(=O)N2CCOCC2)c1
    0.48	-1
- O=C(O)C1CC(=O)N(c2ccc(F)cc2)C1 (stereo not given)
    0.78	0.37
- CC(=O)NC(Cc1c[nH]c2ccccc12)C(=O)OCC(=O)N1CCCCCC1 (stereo not given)
    0.63	-0.46
- COc1ccc(NS(=O)(=O)c2ccc(-n3cnnn3)cc2)cc1OC
    1.5	0.61
- O=C(Nc1ccccc1F)N1CCCC1c1cccnc1 (stereo not given)
    1.4	0.06
- Cc1cc(C)nc(/N=C(\N)Nc2ccccc2-c2ccccc2)n1
    2.2	-1.5
- O=C(CC(c1ccccc1)c1ccccc1O)NCc1ccccc1 (stereo not given)
    4.2	0.1
- N#Cc1c(N)nc2c(c1-c1cccnc1)CCCCC2
    1.8	-1.2
- Cc1cc(NC(=O)CSc2ncnc3ccccc23)no1
    1.1	-0.5
- COc1ccc(S(=O)(=O)N2CCC(C(=O)Oc3cccc(C)c3)CC2)cc1OC
    0.52	-2.4
- O=C1CC(N2CCN(C/C=C/c3ccccc3)CC2)C(=O)N1CCc1ccccc1 (stereo not given)
    3.4	1.6
- Cc1ccc(C(=O)Nc2cccnc2Cl)cc1Cl
    0.3	-3.1
- Cc1cc(C)c(C#N)c(SCC(=O)Nc2nonc2N)n1
    1.2	-0.08
- O=C(NC1CCN(Cc2ccccc2)CC1)C1CCN(S(=O)(=O)c2ccccc2)CC1
    0.62	0.02
- O=C1C(=O)N(Cc2cccnc2)C(c2cccc(Br)c2)/C1=C(/O)c1ccc2c(c1)OCO2 (stereo not given)
    0.27	-0.16
